# Screening data as filed in PubChem.
# Beta2AR agonist = agonists of human beta-2 adrenergic receptor inducing internalization | 340,000 tested, 0.43% active | Am2.2-beta2AR cells, FAP receptor internalization, flow cytometry; reference of the scale not given here | response, % (test concentration not listed) | P07550 | AID 504454;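 active = response above a set limit, near 3 SD of response in nonfluorescent compounds, cut at about 42% in these data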;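 also: stock transfer was 100 nL into about 11 µL; a reference agonist was the positive control; negative values mostly stem from fluorescent compounds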
# Target sequence (P07550 whole entry, looked up): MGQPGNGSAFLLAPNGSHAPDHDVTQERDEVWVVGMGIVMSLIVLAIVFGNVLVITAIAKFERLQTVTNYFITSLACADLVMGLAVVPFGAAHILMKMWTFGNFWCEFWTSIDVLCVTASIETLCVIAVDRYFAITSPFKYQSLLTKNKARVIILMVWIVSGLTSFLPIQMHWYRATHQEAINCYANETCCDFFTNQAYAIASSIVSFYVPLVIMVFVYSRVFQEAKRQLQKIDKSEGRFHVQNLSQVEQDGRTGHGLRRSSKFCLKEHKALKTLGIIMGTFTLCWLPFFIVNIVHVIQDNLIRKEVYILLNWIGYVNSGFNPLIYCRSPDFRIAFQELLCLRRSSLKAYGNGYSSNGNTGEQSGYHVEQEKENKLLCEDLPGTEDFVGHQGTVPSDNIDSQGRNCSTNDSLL
# rRNA inh HTS = selective bacterial rRNA inhibition in E. coli; 350,000 tested, 1.6% active; E. coli WT GFP vs humanized-ribosome RFP mutants, fluorescence, 24 h; stronger effect = lower value; DMSO median 0, no signal -100; GFP signal change (wild-type ribosome), % (concentration not given with the values);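 active = significant combined selectivity score with lowered wild-type GFP, culture density cut under 30%, mutant RFP and density less affected; inactive = any of these conditions unmet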; also: one replicate is shown; some compounds called inactive have numbers as strong as hits
# Ecoli growth = inhibitors of Escherichia coli growth. OD600, 23 h; stronger effect = lower value. OD600 absorbance (concentration not given with the values). 330,000 tested, 0.21% active. AID 1053175;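 active = OD600 absorbance below the run mean of sample wells minus 3.6 SD, in any replicate, cut at about 0.56 in these data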;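 also: stock transfer was 300 nL into about 60 µL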
# FGF22 binding = FGF22 (human) thermal shift binding; Q9HCT0; recombinant FGF22 thermal shift, SYPRO orange fluorescence; percent of sucrose octasulfate shift, DMSO zero; calls only at 9.99 µM; 340,000 tested, 1.5% active; AID 651658;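 active = melting point raised past a set limit in the mean and every replicate; three in four hits are not shown here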
# Target sequence (Q9HCT0 whole entry, looked up): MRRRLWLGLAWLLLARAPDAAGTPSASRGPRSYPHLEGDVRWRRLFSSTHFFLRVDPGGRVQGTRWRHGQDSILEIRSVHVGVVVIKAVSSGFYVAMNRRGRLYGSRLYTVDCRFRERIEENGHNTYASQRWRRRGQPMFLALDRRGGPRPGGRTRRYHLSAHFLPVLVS
# UCH37 inh = blocks the human deubiquitinase UCH37. inhibition, % (concentration not given with the values). Q9Y5K5. 330,000 tested, 0.33% active. purified proteasome/UCH37, Ub-AMC cleavage fluorescence;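 active = mean of two replicates above 20%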;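 also: 0% = compound-free wells with enzyme and 100% = wells lacking proteasome; stock transfer was 100 nL into about 20 µL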
#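 Assay system: Proteasome-bound UCH37. Buffer or medium: pH 7.4 Tris-HCl (50 mM) with ovalbumin, ATP-MgCl2, DTT. Incubation: 30 min preincubation with enzyme, 25 min cleavage at room temperature. Measured by: fluorescence, ex 355 nm, em 460 nm. Read-out basis: percent inhibition. Control set: wells without proteasome as full block, compound-free enzyme plus substrate as uninhibited.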
# HNF4A DNA FP = change in binding of human HNF4 alpha to DNA; HNF4a-FITC DNA binding, fluorescence polarization, 1 h; activity change, % at 10 µM; 360,000 tested, 0.3% active; AID 1224865; in the data active = activity change above about 30%, passing the limit was not always enough;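 also: controls were the assay level and a saturating level of protein; the project sought stronger binding though the title names inhibitors; some compounds called inactive have numbers as strong as hits; positive values seem to mean higher polarization but the record does not say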
# Target sequence (P41235 whole entry, looked up): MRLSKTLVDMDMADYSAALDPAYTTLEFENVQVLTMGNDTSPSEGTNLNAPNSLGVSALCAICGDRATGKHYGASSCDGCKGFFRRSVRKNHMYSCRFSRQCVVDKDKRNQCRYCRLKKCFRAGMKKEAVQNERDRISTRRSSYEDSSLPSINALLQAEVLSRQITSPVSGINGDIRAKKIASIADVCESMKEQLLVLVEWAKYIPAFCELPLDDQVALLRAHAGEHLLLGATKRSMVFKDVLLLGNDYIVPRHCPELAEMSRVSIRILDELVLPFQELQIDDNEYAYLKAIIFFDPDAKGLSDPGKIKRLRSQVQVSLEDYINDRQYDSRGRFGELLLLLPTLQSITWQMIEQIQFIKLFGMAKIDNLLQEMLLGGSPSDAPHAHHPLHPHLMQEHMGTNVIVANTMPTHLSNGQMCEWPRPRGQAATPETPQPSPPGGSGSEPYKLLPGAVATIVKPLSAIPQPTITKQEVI
# ALR H2O2 inh = inhibitors of human sulfhydryl oxidase ALR | P55789 | purified ALR, DTT oxidation, H2O2 HRP-luminol luminescence | inhibition, % (test concentration not listed) | 290,000 tested, 3.8% active | AID 485317;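 active = mean and each replicate at 75% or more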;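 also: stock transfer was 7.5 nL into about 7.5 µL; 0% = neutral wells and 100% = wells with inactivated enzyme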
# rRNA inh HTS OD600 = recorded beside rRNA inh HTS, whose call it bears; OD600 change, %; measured here: OD600 growth;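 optical density of the mix in the first replicate; 0 = DMSO median and -100 = no signal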
# rRNA inh HTS RFP = further read-out of rRNA inh HTS, marked with its call; RFP signal change, %; measured here: RFP humanized mutant strains;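 first replicate; 0 = DMSO median and -100 = no signal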
# Starred values were filed as active, the others as inactive; i = inactive; . = not tested or not shown. A portion of the library; the hit share may differ from the screen's.
SMILES,Beta2AR agonist,rRNA inh HTS,rRNA inh HTS OD600,rRNA inh HTS RFP,Ecoli growth,FGF22 binding,UCH37 inh,HNF4A DNA FP,ALR H2O2 inh
Cc1ccc(-c2nc(CS(=O)CC(=O)N3CCN(c4ccc(F)cc4)CC3)c(C)o2)cc1 (configuration not stated),1,-4,1,4.3,0.71,i,2.2,1.4,99*
O=CN/C=C/c1cccc(O)c1,-10,5,15,-2.4,.,i,.,-3.9,.
CSc1nc(N)c(C(=O)NC2CCCCC2)s1,-3,0,1,-1.4,0.66,i,7.8,1.1,7
O=C(N=Nc1c(O)[nH]c2ccc(Br)cc12)c1cc(-c2cccs2)nc2ccccc12,27,5,6,0.6,0.67,i,2.7,-1.2,.
Cc1cc(Cl)c(S(=O)(=O)Nc2ccc3c(c2)OCO3)cc1OCC(=O)NC1CCCCC1,4,.,.,.,0.73,.,3.9,0.7,-3
Clc1cccc(Oc2cnc3ccccc3n2)c1,-8,.,.,.,0.7,.,1.8,2.1,-11
O=C(NCC(c1ccco1)N1CCOCC1)c1ccccc1 (configuration not stated),-1,2,6,-1.1,0.65,.,3.2,0.9,.
CC(C)c1ccc(NC2=NCC(=O)N2Cc2cccs2)cc1,0,-11,-26,-0.5,0.68,i,1.8,5.5,6
CCc1nnc(N/N=C/c2ccccc2F)n1N,0,6,10,1.2,.,i,.,1.6,-26
Cn1c(=O)cc(SCC(=O)Nc2cccnc2)c2ccccc21,-14,.,.,.,0.7,.,1.0,4.0,.
Cc1[nH]c(=O)[nH]c(=O)c1NC(=O)c1ccccc1[N+](=O)[O-],.,9,14,-3.2,.,i,.,-2.0,.
O=C(CCN1C(=O)C2C3CCC(C3)C2C1=O)Nc1ccc(F)cc1 (configuration not stated),4,3,8,-4.6,0.62,i,1.1,0.2,.
CCOC(=O)C1=CN(Cc2ccco2)S(=O)(=O)N(C)C1c1ccc(C(F)(F)F)cc1 (configuration not stated),1,0,-13,3.5,0.71,i,2.4,0.6,.
CCC(=O)c1ccc(OCC(=O)N(CC)CC2COc3ccccc3O2)cc1 (configuration not stated),-3,-11,-26,-0.6,0.7,i,4.7,1.5,.
C#CC[N+](CC)(CC)CC#Cc1cccc(Cl)c1,4,.,.,.,0.68,.,0.1,-1.1,-4
CCN(CC)CCCNc1nc(N)c([N+](=O)[O-])c(NCCO)n1,-2,.,.,.,0.69,i,17,3.4,-1
COc1ccccc1CNC(=O)C(=O)NCCC1CCCCN1S(=O)(=O)c1ccc(C)cc1 (configuration not stated),-7,-6,-11,6.6,0.69,i,2.7,0.2,.
CCN(CC(=O)Nc1c(F)cccc1F)C(=O)CCCN1C(=O)c2cccc3cccc(c23)C1=O,.,3,1,6.7,.,i,.,1.2,.
Cc1cc(NC(=O)c2ccccc2F)n(-c2nc3ccccc3[nH]2)n1,1,.,.,.,0.74,.,-4.4,-7.2,-11
CCc1ccc(/C=N/NC(=O)c2cc(-c3ccccc3OC)nc3ccccc23)s1,4,.,.,.,.,.,.,5.0,7
COCC(C)Nc1ncnc2c1cnn2-c1ccc(Cl)cc1 (configuration not stated),22,.,.,.,0.72,.,0.5,0.7,-3
Cc1ccc(C)c(OCCn2cc(/C=C(/C#N)C(=O)NCC3CCCO3)c3ccccc32)c1 (configuration not stated),3,.,.,.,0.73,i,3.7,1.2,4
N#CCc1c(C#N)c(N)nc(N2CCN(C=O)CC2)c1C#N,-7,27,11,5.2,0.66,i,-0.2,2.0,41
CC1CN(C(=O)c2ccc(Cl)c(S(=O)(=O)NCc3ccco3)c2)CC(C)O1 (configuration not stated),3,2,11,-1.3,0.7,i,1.5,-0.8,3
CCOc1ccc(NC(=O)CCC(=O)NNC(=O)c2ccco2)cc1,0,3,6,1.4,0.72,i,1.5,-0.6,2

# Individual results from above.
# Beta2AR agonist, O=C(N=Nc1c(O)[nH]c2ccc(Br)cc12)c1cc(-c2cccs2)nc2ccccc12 = 27
# Ecoli growth, CCOC(=O)C1=CN(Cc2ccco2)S(=O)(=O)N(C)C1c1ccc(C(F)(F)F)cc1 (configuration not stated) = 0.71
# rRNA inh HTS, COc1ccccc1CNC(=O)C(=O)NCCC1CCCCN1S(=O)(=O)c1ccc(C)cc1 (configuration not stated) = -6
# HNF4A DNA FP, CCN(CC(=O)Nc1c(F)cccc1F)C(=O)CCCN1C(=O)c2cccc3cccc(c23)C1=O = 1.2
# UCH37 inh, Cc1ccc(C)c(OCCn2cc(/C=C(/C#N)C(=O)NCC3CCCO3)c3ccccc32)c1 (configuration not stated) = 3.7
# HNF4A DNA FP, CCOc1ccc(NC(=O)CCC(=O)NNC(=O)c2ccco2)cc1 = -0.6
# rRNA inh HTS RFP, N#CCc1c(C#N)c(N)nc(N2CCN(C=O)CC2)c1C#N = 5.2

# (list continues)
SMILES,Beta2AR agonist,rRNA inh HTS,rRNA inh HTS OD600,rRNA inh HTS RFP,Ecoli growth,FGF22 binding,UCH37 inh,HNF4A DNA FP,ALR H2O2 inh
O=C(CNC(=O)c1ccc(F)cc1)c1ccccc1,1,2,3,-4.0,0.64,i,-1.3,2.2,-13
Cn1c(CO)cnc1S(=O)(=O)Cc1c(Cl)cccc1Cl,1,5,15,-1.0,0.68,i,2.6,1.7,3
COC(=O)C(C)Oc1ccc(-c2nccc(-c3ccccn3)n2)cc1 (configuration not stated),3,-8,-18,1.0,0.69,i,5.9,-0.4,2
CSc1nc(-c2ccc(Cl)cc2Cl)[nH]c(=O)c1C#N,7,-26,-44,-20,0.72,i,2.5,1.1,96*
O=C(CC1C(=O)NCCN1CC1CCCCC1)NCc1ccc(F)cc1 (configuration not stated),-6,-4,-4,1.0,0.69,.,-3.0,2.5,-3
CCN1CCN(Cc2c(O)ccc3c2O/C(=C\c2ccc(C)cc2)C3=O)CC1,-1,.,.,.,0.7,.,-89,1.6,58
Nc1nnc(CCOc2ccc(Cl)cc2)s1,5,-8,-8,-9.0,0.56,i,1.0,-1.6,1
O=C(Nc1cccc(Cl)c1)C1CCN(C(=O)c2cccs2)CC1,-3,6,2,5.2,0.65,i,3.1,4.0,-3
O=C(O)CCCC(=O)Nc1ccc(N=Nc2ccccc2)cc1,-2,-17,-15,-6.0,0.69,i,16,-1.5,41
CCn1c(C(C)NC(C)=O)nc2ccccc21 (configuration not stated),4,0,4,-0.7,0.7,i,3.1,3.2,-13
Cc1ccnc(NC(=O)C2CCC(CNc3c(N4CCCC4)c(=O)c3=O)CC2)c1 (configuration not stated),-4,5,8,-0.1,0.73,i,4.9,-0.5,5
O=C(Cc1ccccc1Cl)Nc1ccc(S(=O)(=O)Nc2nccs2)cc1,-7,0,6,6.6,0.69,i,1.3,4.8,23
CSc1ccc(/C=C/C(=O)OCC(=O)NC2CCCCCC2)cc1,.,-1,6,-3.5,.,i,.,-2.4,.
O=C(COc1coc(CN2CCc3ccccc3C2)cc1=O)N1CCOCC1,-3,19,16,-1.2,.,i,.,2.9,4
O=C(O)CN=C(NS(=O)(=O)c1ccccc1)c1ccccc1,1,.,.,.,0.64,.,-1.5,-1.0,-4
Brc1cccc(-c2cnco2)c1,0,8,2,-7.6,0.69,i,-0.2,2.2,-6
COc1ccccc1CNC(=O)C1CCN(S(=O)(=O)c2cccc3cccnc23)CC1,-7,-3,-9,4.8,0.75,i,3.3,4.7,-46
COC(=O)C1Cc2c([nH]c3ccccc23)C(C(C)C)N1 (configuration not stated),1,-2,-7,5.9,0.67,i,-52,0.8,-5
CCOc1ccc(-c2nc(CN3CCCCC3CCn3cccn3)c(C)o2)cc1 (configuration not stated),-8,0,-8,0.6,0.65,i,0.4,-0.4,-2
CCc1cccc(NC(=O)CN(C)S(=O)(=O)c2cccc3cccnc23)c1,-10,-20*,-12*,0.6*,0.64,i,5.6,0.3,-1
Cc1ccccc1N1CCN(C(=O)c2cc(C3CC3)nn2-c2ccccc2)CC1,-9,-22,-26,-1.3,0.71,i,4.5,8.1,0
COc1ccc(CCCc2nnc(SCc3nc4ccccc4c(=O)[nH]3)n2C)cc1,-6,6,13,0.8,0.68,.,2.9,2.5,-2
S=C(Nc1ccccc1)N1CCc2ccccc21,-2,17,10,2.9,0.67,i,2.4,2.5,1
Cc1ccc(OCCNC(=O)c2cncc(Br)c2)cc1C,1,.,.,.,0.73,.,-0.4,-1.6,-1
COc1ccc(C(=O)Nc2cccc(NC(=O)c3cccs3)c2)cc1OC,-8,1,3,-1.4,0.62,i,2.4,-0.1,5

# Next section, overlapping the part above by four compounds.
SMILES,Beta2AR agonist,rRNA inh HTS,rRNA inh HTS OD600,rRNA inh HTS RFP,Ecoli growth,FGF22 binding,UCH37 inh,HNF4A DNA FP,ALR H2O2 inh
COc1ccc(CCCc2nnc(SCc3nc4ccccc4c(=O)[nH]3)n2C)cc1,-6,6,13,0.8,0.68,.,2.9,2.5,-2
S=C(Nc1ccccc1)N1CCc2ccccc21,-2,17,10,2.9,0.67,i,2.4,2.5,1
Cc1ccc(OCCNC(=O)c2cncc(Br)c2)cc1C,1,.,.,.,0.73,.,-0.4,-1.6,-1
COc1ccc(C(=O)Nc2cccc(NC(=O)c3cccs3)c2)cc1OC,-8,1,3,-1.4,0.62,i,2.4,-0.1,5
O=C(NCC1CCCO1)c1ccc[nH]1 (configuration not stated),-3,3,4,-1.2,0.69,i,3.1,-3.5,3
COc1ccc(-c2nc(C)c(C(C)=O)n2O)cc1OC,0,.,.,.,0.72,.,0.8,-0.6,-1
CC1(C(=O)Nc2ccc(Cl)cc2)Cc2c(-c3ccc4c(c3)OCO4)ccnc2O1 (configuration not stated),.,-11,-10,-4.6,.,i,.,-1.0,.
CCC(NC(=O)COc1cc2c(c3oc(=O)c(C)c(C)c13)CCC(C)(C)O2)C(=O)O (configuration not stated),-4,6,5,-0.9,0.67,i,i,-0.2,27
O=C(CCCl)Nc1nc2c(s1)CCc1ccccc1-2,-3,-20,-45,-7.4,.,i,.,0.0,-156
COc1cc(/C=C2/C(=N)N3N=C(C(C)C)SC3=NC2=O)ccc1OS(=O)(=O)c1ccccc1,13,-5,-5,0.2,0.6,i,4.7,2.4,19
O=C(NC1CCCC1)c1cnn2c(C(F)(F)F)cc(-c3ccc4c(c3)OCO4)nc12,3,8,20,-2.0,0.71,.,-47,70*,-3
O=C(N/N=C/c1ccc2nccnc2c1)c1ccncc1,0,9,10,-0.7,.,i,.,0.1,-5
Cc1ccc(OCCC(=O)OCC(=O)Nc2ccc3c(c2)OCCO3)cc1,-2,0,6,-1.0,0.68,i,3.4,0.6,-15
CCOCc1nnc(NC(=O)c2cccs2)s1,2,.,.,.,0.68,.,3.8,2.9,10
O=S(=O)(Oc1ccccc1C(=S)N1CCOCC1)c1ccc(Cl)cc1,-2,-8,-9,1.2,0.68,i,2.1,0.4,-8
CC(C)CN(C(=O)CSc1nnc(-c2cccs2)n1N)c1c(N)n(Cc2ccccc2)c(=O)[nH]c1=O,-10,10,16,0.0,0.7,i,-0.8,-0.7,.
Cc1cc(-c2ccccc2)nc(N(C)NC(=O)c2c(F)cccc2F)c1S(C)(=O)=O,-8,.,.,.,0.76,.,4.5,0.7,.
Cc1nc([N+](=O)[O-])c(N2CCN(C)CC2)n1Cc1ccccc1,2,.,.,.,0.72,.,5.0,2.4,-2
CCNc1nc(NCC)nc(Oc2ccc(N)cc2)n1,-9,.,.,.,0.71,.,-0.3,7.1,-5

# Records above printed as active in ALR H2O2 inh.
SMILES,Beta2AR agonist,rRNA inh HTS,rRNA inh HTS OD600,rRNA inh HTS RFP,Ecoli growth,FGF22 binding,UCH37 inh,HNF4A DNA FP,ALR H2O2 inh
Cc1ccc(-c2nc(CS(=O)CC(=O)N3CCN(c4ccc(F)cc4)CC3)c(C)o2)cc1 (configuration not stated),1,-4,1,4.3,0.71,i,2.2,1.4,99*
CSc1nc(-c2ccc(Cl)cc2Cl)[nH]c(=O)c1C#N,7,-26,-44,-20,0.72,i,2.5,1.1,96*
